Bioassay records deposited in PubChem BioAssay by National Center for Advancing Translational Sciences (NCATS).
Vaccinia Venus – inhibitors of vaccinia virus (Venus reporter); 330,000 compounds, 0.46% hits; Vaccinia virus Venus reporter expression, fluorescence; Potency, µM (top dose mostly 36.5 µM), inactives show at the highest dose activity change, negative = inhibition, hits mostly inhibitors; active means well fitted inhibition curve with a large enough effect; inconclusive means small, poorly fitted or top-dose-only effect; inactive means no such curve, though single readings can be large or run the other way; tested in A549 cells; note: nearly all actives have a fitted effect of over 30% in size; inactives centre near -10
Vaccinia mCherry – inhibitors of vaccinia virus infection (mCherry reporter signal). Potency, µM (doses to about 36.5 µM), inactives show at the top dose activity change, negative = inhibition, usual class: inhibitors. 310,000 compounds, 0.63% hits. Vaccinia virus mCherry reporter infection, fluorescence; about a quarter of the inactives have no number; active = well fitted inhibition curve with a large enough effect; inconclusive = small, poorly fitted or top-dose-only effect; inactive = no such curve, though single readings can be large or run the other way; tested in A549 cells; note: nearly all actives have a fitted effect of over 35% in size; inactives centre near -10
Starred values were filed as active, the others as inactive; i = inactive; ? = inconclusive; · = no result given; & = joins results of further samples; [ ] = remark or other dose. % is set by controls: 0 for no effect and ±100 for the full control effect; potency is the fitted concentration of half-maximal effect.

Structure,Vaccinia Venus,Vaccinia mCherry
Cc1cc(C)cc(OCC(O)CN2CCN(Cc3ccc4c(c3)OCO4)CC2)c1 (configuration not stated),-13%,?
O=C(CN1C(=O)CCc2cc(S(=O)(=O)N3CCOCC3)ccc21)NCc1ccccc1Cl,8%,-2%
COc1cc([N+](=O)[O-])ccc1NC(=O)CSc1n[nH]c(C(C)C)n1,7%,4%
COc1ccc(C(=O)Nc2oc(-c3ccccc3)c(-c3ccccc3)c2C#N)cc1,-6%,-19%
Oc1ccc(-c2c(-c3ccsc3)sc3ccccc23)cc1,?,-24%
CCN(C(=O)COC(=O)c1cc(-c2ccc(C)o2)nc2ccccc12)C1CCS(=O)(=O)C1 (configuration not stated),-9%,?
CCC1=NN2C(=N)/C(=C\c3ccc(OCCOc4ccc(NC(C)=O)cc4)cc3)C(=O)N=C2S1,-12%,i
COc1cccc2c1nc(C)c1cc(C)oc12,-23%,-7%
O=C(O)c1ccccc1C(=O)N1CCN(c2ccccc2)CC1,-2%,·
CC(C)N(Cc1nc(-c2ccccc2)no1)C(=O)c1ccc(Cl)cc1,-13%,i
O=C(Nc1ccccc1)Nc1ccc(Cl)c(S(=O)(=O)N2CCOCC2)c1,-21%,i
CCC(C)NC(=O)Cn1c(=O)n(Cc2ccc(C(=O)NCCCOC)cc2)c(=O)c2ccccc21 (configuration not stated),-11%,-14%
c1ccc(-c2cnnn2-c2ccccc2)cc1,-6%,-12%
Cc1ccc(S(=O)(=O)N2[C@@H](c3ccccc3)C(C(=O)O)=CC[C@H]2c2cccc(C)c2)cc1,0%,i
COC(=O)CSCC(=O)Nc1cc2c(cc1C(C)=O)OCO2,-19%,·
Cc1cc(C)c(S(=O)(=O)NCc2ccccn2)c(C)c1,-7%,i
C=CC[C@H](CC(=O)OC(C)(C)C)C(=O)OC[C@H]1CCCN1C(=O)[C@H](CC=C)CC(=O)NCCO,-4%,-12%
Cc1ccc2c(c1)C(=C(C#N)C#N)CCN2,207%[activator],-24%
O=C(CN(Cc1ccccc1)S(=O)(=O)c1ccc(F)cc1)NCc1cccnc1,-10%,i
Cc1cc(C)nc(SCc2csc(N)n2)n1,-8%,·
O=C(Nc1ccc2nc3n(c(=O)c2c1)CCCCC3)C(=O)Nc1ccccc1F,-18%,-18%
COc1ccc(CNC(=O)CCCn2nc(C)n3c(cc4sccc43)c2=O)cc1,-21%[7.34 µM],-13%
Cc1ccc(OCCNC(=O)/C=C/c2ccc([N+](=O)[O-])cc2)cc1C,-4%,-5%
COc1ccccc1/C=C/C(=O)OCCCN(C)C,-4%,i
COc1cccc(C(=O)NC(=S)Nc2nnn(C)n2)c1,-8%,-1%
COc1cc(/C=N/NC(N)=O)cc(Br)c1OCc1ccc(C)cc1,-5%,-11%
COc1ccc(Cc2cnc(N)s2)cc1,-9%,i
COc1ccccc1Nc1nc(C)cs1,11%&-13%,-15%
Cc1ccccc1OCC(=O)Nc1nnc(COc2ccccc2)s1,-18%,i
COc1ccc(OCc2nnc(SC(C)C(=O)Nc3nccs3)n2-c2ccccc2)cc1 (configuration not stated),-20%,?
O=c1c(N2CCN(c3cccc(C(F)(F)F)c3)CC2)csc2ccccc12,-26%,-16%
Cc1ccc2occ(CC(=O)N(Cc3ccc(C(C)C)cc3)C3CCS(=O)(=O)C3)c2c1 (configuration not stated),-16%,-10%
COc1cc(OC)c(OC)cc1/C=N/Nc1ccc(Cl)nn1,-6%,9%
Cc1ccc(-c2csc3ncnc(Nc4ccc(N5CCOCC5)cc4)c23)cc1,-22%,-11%
COCc1c(C(=O)NC2CCOC(C)(C)C2)cnn1-c1nccc(-c2cccs2)n1 (configuration not stated),5%,-5%
CC(C)(C)n1nnnc1C(c1ccccc1)N1CCN(C(=O)C2CCCO2)CC1 (configuration not stated),-4%,8%
COc1cc(/C=N/NC(=O)C(N)=O)ccc1OCC(=O)N1C(C)CCCC1C (configuration not stated),-8%,-22%
Cc1ccc(Nc2nc(N)nc(CSc3nccn3C)n2)cc1,-11%,-11%
O=C(/C=C/c1ccc(Cl)c([N+](=O)[O-])c1)Nc1cccnc1,-12%,i
CCc1nn(CC(=O)N2CCN(C)CC2)c(=O)c2cccn12,-8%,-15%
CC1CN(CCOc2ccccc2[N+](=O)[O-])CC(C)O1 (configuration not stated),-15%,?
N#CC1=C(N)N=C(SCc2cccc3ccccc23)C(C(N)=O)C12CCCCC2 (configuration not stated),?,?
O=C(CCN1CCOCC1)N1CCc2c([nH]c3ccccc23)C1c1cccc(Cl)c1 (configuration not stated),-14%,-26%
COc1ccc(/C=C/C(=O)C2CC2)cc1Cn1nc(C)c([N+](=O)[O-])c1C,-14%,-7%
Cc1oc(-c2ccc(Cl)cc2)nc1CN1CCCN(C(=O)c2ccco2)CC1,-18%,-4%
Cc1ccc(Cn2ccc(NC(=O)c3nn(C)cc3[N+](=O)[O-])n2)cc1,-26%,?
Cn1c(CNC(=O)c2cccs2)nnc1SCC(=O)Nc1ccccc1,-9%,i
COC(=O)c1ccc(C(=O)OC)c(NC(=O)Cc2cccs2)c1,-6%,-10%
COc1ccc(CCNC(=O)Cn2cnc3c(cnn3-c3ccccc3Cl)c2=O)cc1OC,-5%,-30%
c1ccc(-c2cc3c(N4CCCC4)ncnc3s2)cc1,-20%,-11%

(listing goes on)
Structure,Vaccinia Venus,Vaccinia mCherry
Cc1ccc(NS(=O)(=O)c2ccc(NC(=O)c3cccc(NC(=O)C(C)C)c3)cc2)cc1,?,·
COc1ccc(NS(=O)(=O)c2cccc(C(=O)N/N=C(/C)c3ccc(-n4ccnc4)cc3)c2)cc1,3%,?
Nn1cnc2scc(-c3cccs3)c2c1=O,-2%,i
O=C(OCCOc1cccc(Cl)c1)c1cc(S(=O)(=O)N2CCOCC2)ccc1F,-6%,-11%
COCCCNC(=O)C[C@H]1C[C@H](C(=O)N2CCCCC2)[C@@]2(C)c3[nH]c4ccc(Cl)cc4c3CCN2C1=O,0%,-11%
O=C(O)c1ccccc1C(=O)Nc1cc(C(F)(F)F)ccc1N1CCCC1,-11%,i
COc1ccc(-c2nsc(NC(=O)C(C)Oc3ccc(Cl)c(C)c3)n2)cc1 (configuration not stated),-11%,-6%
CC(C)(O)C(=O)NN(C(=O)c1ccccc1)c1ccc2ccccc2c1,-18%,·
CCn1c(=O)c(C(=O)Nc2ncccc2C)c(O)c2ccccc21,3%,i
CCCNC(=O)Cn1nc([N+](=O)[O-])c([N+](=O)[O-])c1C,1%,-9%
COc1ccc(S(=O)(=O)N(C)c2ccc(C(=O)Nc3cccnc3)cc2)cc1,-19%,-21%
O=C(CNC(=O)c1ccccc1Br)NCC(c1ccco1)N1CCCCC1 (configuration not stated),-11%,-19%
COCCNC(=O)C1(C)CCCN(C(=O)c2ccc(C(F)(F)F)cc2)C1 (configuration not stated),-2%,0%
CCOC(=O)CSc1nc2c([nH]c3ccccc32)c(=O)n1-c1ccc(OC)cc1,-11%,-10%
N/C(CSc1ccc(Cl)cc1)=N\NC(=O)c1ccncc1,-10%,-6%
O=[N+]([O-])c1cccc(CSc2nnc(Cc3ccccc3)n2-c2ccc(F)cc2)c1,-18%,-28%
C[C@@]12C(=O)Nc3ccc(Cl)cc3C(=O)N1[C@H]1c3cc(Br)ccc3OC[C@@H]1[C@@H]2c1ccccc1,?,-7%
N#CC12c3ccccc3C(=O)N1Cc1cnnn1-c1ccccc12 (configuration not stated),-16%,-9%
COCCN(C(=O)COC(=O)Cc1cccc(OC)c1)c1c(N)n(CC(C)C)c(=O)[nH]c1=O,-13%,-9%
CCOC(=O)c1[nH]c2cc3c(cc2c1NC(=O)CN1CCC(C)CC1)OCO3,?,-16%
Cc1cc(C)nc(SC2CCCCC2O)n1 (configuration not stated),-12%,-14%
N=c1sccn1CC(=O)Nc1cc(S(=O)(=O)N2CCCC2)ccc1Cl,0%,3%
O=C(COc1ccc2c(c1)OCO2)NCc1cccs1,-4%,-12%
COc1ccc(CNc2nc(SCc3cc(=O)n4cc(Cl)ccc4n3)nc3ccccc23)cc1,-6%,i
CC1CC(C)CN(S(=O)(=O)c2ccc3c(c2)CCN3C(=O)CCC(=O)O)C1 (configuration not stated),-15%,i
O=C(Nc1cc(Cl)ccc1Cl)c1cc(S(=O)(=O)N2CCc3ccccc3C2)ccc1F,?,?
O=C(COC(=O)COc1ccccc1)Nc1ccccc1OC(F)F,-17%,·
O=C(O)CCC(=O)N1CCc2c([nH]c3ccccc23)C1C(F)(F)F (configuration not stated),-10%,-10%
O=C(c1ccc(Cl)cc1)C1CCCN(Cc2ccon2)C1 (configuration not stated),-15%,i
O=C(c1ccccc1)c1cccc[n+]1[O-],-7%,-5%
CCC1=NN(C(=O)Cc2ccc(OC)cc2)C(O)(C(F)(F)F)C1 (configuration not stated),-5%,-9%
Cc1ccc(O)c(NC(=O)CCSc2nc(-c3ccco3)cc(C(F)(F)F)n2)c1,-25%,?
CC(C)C(NC(=O)c1c(F)cccc1F)C(=O)NCc1ccncc1 (configuration not stated),0%,-10%
CC(=O)Nc1ccc(OCC(O)Cn2c(C)nc3ccccc32)cc1 (configuration not stated),-5%,-1%
Cc1ccc2[nH]c(=O)c(C3C(C#N)=C(N)Oc4c3ccc3cccnc43)cc2c1 (configuration not stated),?,10µM*
CS(=O)(=O)N(CC(=O)O)c1ccc(Oc2ccccc2)cc1,2%,-6%
COc1ccc(C(=O)N2CCN(C(=O)COc3ccc(C)cc3)CC2)cc1OC,-5%,-9%
Cc1cc(C)c(C(=O)Cn2cnc3cc([N+](=O)[O-])ccc3c2=O)cc1C,-10%,-6%
COc1cc(OC)c(NC(=O)c2cccc(F)c2)cc1Cl,-3%,-11%
O=c1[nH]cc(F)c(=O)n1C1OC(CO)C(O)C1O (configuration not stated),-2%,-5%
COc1ccc(NC(=O)N2CCCC(c3nc(-c4ccc(OC)cc4)no3)C2)cc1 (configuration not stated),-21%,i
Cc1ccc(CNC(=O)CNC(=S)N(Cc2ccccc2)Cc2ccccc2F)cc1,-17%,-11%
CCc1ccc(NC(=O)N(CCCN2CCOCC2)C(C)c2cc3cccc(OC)c3o2)cc1 (configuration not stated),-24%,-9%[1.46 µM]
O=C(CSc1nnc(-c2ccco2)o1)NC(=O)Cc1ccccc1,2%,-16%
COC(=O)c1ccc2[nH]cc(CCO)c2c1,-27%,i
O=C(NCCc1csc(-c2ccc(F)cc2)n1)c1ccco1,7%,-6%
C=CCn1c(COc2ccccc2F)nnc1SCC(=O)Nc1cc2oc3ccccc3c2cc1OC,?,·
N#Cc1cc2c(ccc3ccccc32)oc1=O,-11%,?
N=c1c(C(=O)NC2CCCCC2)cc2c(=O)n3ccccc3nc2n1CC1CCCO1 (configuration not stated),-6%,i
Cc1ccc(OCC(=O)Nc2ccc(S(=O)(=O)Nc3ccccn3)cc2)c(C)c1,-11%,-17%

(further entries)
Structure,Vaccinia Venus,Vaccinia mCherry
Cc1nn(CCc2n[nH]c(=S)n2C)c(C)c1Br,-10%,-1%
O=C(CSc1ccc([N+](=O)[O-])cn1)Nc1ccc(N2CCOCC2)cc1,-7%,i
O=C(COC(=O)c1ccc(O)cc1)Nc1cccc(S(=O)(=O)NC2=NCCCCC2)c1,-2%,-24%
CCNC1(C#N)CCN(Cc2ccccc2)CC1,-6%,-9%
Cc1cccc2sc(NC(=O)c3ccc(Cl)s3)nc12,-6%,i
COC(=O)c1ccc(N2CC3CNC(=O)C2(C(=O)OC)N3C)cc1 (configuration not stated),-8%&-3%,i
OCC[C@@H]1C[C@H](O)[C@@H](O)[C@]2(OCc3ccccc32)O1,0%,i
Cc1cc(NC(=O)CSCC(=O)Nc2ccccc2N2CCCCC2)no1,-23%,-9%
CCc1ccc(N(CC)C(=O)Cn2cnc3sc(C)c(S(=O)(=O)N4CCN(c5ncccn5)CC4)c3c2=O)cc1,-4%,4%
